NPR1 antag – Natriuretic polypeptide receptor (hNpr1) antagonism - Primary qHTS; Atrial natriuretic peptide receptor 1 (Homo sapiens), P16066; HEK293 hNpr1 GloSensor cGMP, ANP-stimulated luminescence; Potency, µM (series often up to 46.3 µM), without a hit: at the highest dose activity change, negative = inhibition, actives largely listed as inhibitors; 1.6% of 76,000 active; active = well fitted inhibition curve with a large enough effect; inconclusive = small, poorly fitted or top-dose-only effect; inactive = no such curve, though single readings can be large or run the other way;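 note: nearly all actives have a fitted effect of over 60% in size; nearly all hits also lower the signal before the agonist is added; a reference antagonist and vehicle were the controls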
Target sequence (P16066 whole entry, looked up): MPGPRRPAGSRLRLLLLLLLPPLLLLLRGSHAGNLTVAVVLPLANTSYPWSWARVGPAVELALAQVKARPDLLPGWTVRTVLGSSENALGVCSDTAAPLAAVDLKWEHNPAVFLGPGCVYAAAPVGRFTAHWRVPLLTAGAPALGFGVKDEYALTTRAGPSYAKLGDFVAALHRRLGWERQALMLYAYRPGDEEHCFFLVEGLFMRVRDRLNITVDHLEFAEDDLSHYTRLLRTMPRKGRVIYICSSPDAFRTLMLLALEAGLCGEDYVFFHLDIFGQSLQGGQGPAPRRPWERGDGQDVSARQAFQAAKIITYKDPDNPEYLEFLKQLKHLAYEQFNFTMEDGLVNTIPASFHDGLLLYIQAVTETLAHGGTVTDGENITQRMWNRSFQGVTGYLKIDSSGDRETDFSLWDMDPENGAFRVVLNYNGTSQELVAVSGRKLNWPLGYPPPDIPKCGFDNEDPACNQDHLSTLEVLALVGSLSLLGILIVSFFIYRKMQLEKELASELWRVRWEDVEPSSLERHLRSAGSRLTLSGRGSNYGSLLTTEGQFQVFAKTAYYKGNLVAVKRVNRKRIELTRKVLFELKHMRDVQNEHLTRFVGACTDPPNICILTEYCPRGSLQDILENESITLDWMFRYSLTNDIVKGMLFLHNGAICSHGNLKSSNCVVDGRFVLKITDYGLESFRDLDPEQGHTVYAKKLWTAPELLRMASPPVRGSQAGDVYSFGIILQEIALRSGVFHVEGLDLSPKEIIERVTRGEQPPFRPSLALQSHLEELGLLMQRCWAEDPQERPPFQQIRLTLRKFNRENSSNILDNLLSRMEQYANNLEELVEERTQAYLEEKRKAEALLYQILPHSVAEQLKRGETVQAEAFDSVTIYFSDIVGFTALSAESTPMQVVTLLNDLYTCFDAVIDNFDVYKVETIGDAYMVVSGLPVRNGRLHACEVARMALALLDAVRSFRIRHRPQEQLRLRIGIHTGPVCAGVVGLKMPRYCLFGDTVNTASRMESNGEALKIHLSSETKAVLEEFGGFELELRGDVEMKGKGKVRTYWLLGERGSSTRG
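HEK293 cells stably expressing human Npr1 and cGMP GloSensor pGS-40F, loaded 2 h with 2% GloSensor reagent, given compound 30 min at room temperature. Luminescence read before and 20 min after 0.1 nM hNppA.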
* hit, by the source's call; u = inconclusive; [ ] = dose if it differs, or a comment. % is set by controls: 0 for no effect and ±100 for the full control effect; potency is the fitted concentration of half-maximal effect. This is a subset (hit frequency here may not be typical).

COCC(=O)N1CCCC(c2noc(COc3ccccc3F)n2)C1 (centres undefined)
- NPR1 antag: 7%

CN1CCOc2nc(-c3cccc(OC(F)(F)F)c3)ncc2C1=O
- NPR1 antag: u

COc1ccc(CNC(=O)N2CCCCC2c2noc(COCC3CC3)n2)cc1 (centres undefined)
- NPR1 antag: -1%

CC(=O)N1C[C@@H](F)[C@@H](OCc2nc3ccc(C(F)(F)F)cc3[nH]2)C1
- NPR1 antag: 1%[70.6 µM]

O=C(O)Cn1ccc2cc(OCCc3cccc(-c4cncnc4)c3)cnc21
- NPR1 antag: -4%[70.6 µM]

CCCS(=O)(=O)N[C@H]1CO[C@H]2[C@@H]1OC[C@H]2OC(=O)Nc1ccc(OC)cc1
- NPR1 antag: 0%[70.6 µM]

C=CCN(C(=O)CC1COc2ccc(C(=O)N(C)C)cc2N1C)C(C)C (centres undefined)
- NPR1 antag: -4%

CCCNC(=O)N1CCCCCC1CN1CCOCC1 (centres undefined)
- NPR1 antag: 1%

Cc1ccc(C(=O)N2CCN(C(=O)c3nnn4c3COC(c3ccccc3)C4)CC2)c(C)c1 (centres undefined)
- NPR1 antag: u

Cc1cccc(NC(=O)c2ccc3c(c2)N(C)C2CCCN2C3=O)c1C (centres undefined)
- NPR1 antag: 4%

CC[C@@]1(O)CCN(C(=O)c2sc(C)cc2OC)C[C@H]1O
- NPR1 antag: 3%

CCN(C(=O)Cn1nc2n(c1=O)CCCCC2)c1ccccc1
- NPR1 antag: 6%

CN(CC1CCCO1)c1ccc(C(=O)N2CCC(N3CCOCC3)CC2)cn1 (centres undefined)
- NPR1 antag: 4%

COCCn1ncc(N2CCCC(CC(=O)NCc3ccc(C)cc3)C2)cc1=O (centres undefined)
- NPR1 antag: 0%

CC(=O)N(C1CC1)C1CCOC2(CCN(C(=O)CCc3nc4ccccc4s3)CC2)C1 (centres undefined)
- NPR1 antag: -3%

CCn1ccc(C(=O)N2C[C@@H](Oc3ccccc3)C[C@H]2C(=O)N2CCOCC2)n1
- NPR1 antag: 1%

CCC1(O)CCC12CCN(C(=O)Cc1ccccc1)CC2 (centres undefined)
- NPR1 antag: 1%

CN1CCC(C(=O)N[C@@H]2CN(c3ncccn3)C[C@H]2CO)CC1
- NPR1 antag: 9%

CCOCC(=O)N1CCC(N2CC3CC(C2)[C@H]2CCCC(=O)N2C3)CC1 (some centres undefined)
- NPR1 antag: 2%

CCOc1ccc(-c2cc3c(=O)n(CCNC(=O)c4ccc(OC)cc4C)ccn3n2)cc1
- NPR1 antag: u

COCc1ncc(C)n1CC1CCN(C(=O)CCc2ccc(OC)cc2)CC1
- NPR1 antag: -4%

O=C(O)c1ccnc(-c2ccnc(N3CCCOC(CN4CCCC4)C3)n2)c1 (centres undefined)
- NPR1 antag: 1%

COCCNc1cc(-c2ccc(Cl)cc2)nc2c(C)noc12
- NPR1 antag: 0%[70.6 µM]

Cc1cc(S(=O)(=O)N(C)CC2CCOCC2)ccc1Cl
- NPR1 antag: -3%

CN1C[C@@H](NC(=O)Nc2cccc(C#N)c2)C[C@H]1c1nc(-c2ccccn2)no1
- NPR1 antag: -3%[70.6 µM]

CCOC(=O)N1CCN(C(=O)c2sc(C(C)C)nc2C)CC1
- NPR1 antag: 0%

COc1ccc(C2Cn3nnc(-c4noc(C5CCCC5)n4)c3CO2)cc1 (centres undefined)
- NPR1 antag: -16%

Cc1ncsc1C1N(C2CCN(Cc3cn(C)c4ccccc34)CC2)C(=O)C12CCCC2 (centres undefined)
- NPR1 antag: 1%

O=C(NCc1ccc(Cl)cc1)c1cc(-c2ccc[nH]2)n[nH]1
- NPR1 antag: 12%

CCn1c(CO)nnc1C1CC(NC(=O)c2ccc3nc(C)oc3c2)C1 (centres undefined)
- NPR1 antag: -2%

Cc1ccc(C(C)CCN2CCC3(CC2)C(=O)N(Cc2ccccn2)C(=O)N3Cc2ccccc2)o1 (centres undefined)
- NPR1 antag: -3%

CCc1c(C(=O)N[C@@H]2COCC[C@H]2OCc2ccccn2)csc1C
- NPR1 antag: 2%

COCc1cc(CNC(=O)c2cn(C3CCC(N)CC3)nn2)[nH]n1 (centres undefined)
- NPR1 antag: 5%

CCc1nc(-c2c3n(c(=O)n(CC(=O)NCc4ccccc4Cl)c2=O)CCCC3)no1
- NPR1 antag: -17%

CCOC(=O)c1ccc(Nc2nc(-c3ccccc3)no2)cc1
- NPR1 antag: -30%

CC(C)CCCC1CN(S(=O)(=O)c2ccsc2)CCO1 (centres undefined)
- NPR1 antag: 0%

O=C(c1ccccc1)N1C[C@H]2OC(=O)N(CCCN3CCOCC3)[C@H]2C1
- NPR1 antag: 7%

COc1ccc(CN2C(=O)COC[C@H]2C(=O)N2CCN(c3ccc(C)cc3)CC2)cc1
- NPR1 antag: 5%

COc1ccc(-c2cc(N3CCCN(C(=O)c4cc(OC)cc(OC)c4)CC3)n[nH]2)cc1
- NPR1 antag: -15%

COc1ccc(CCNC(=O)c2c(C)noc2-c2ccc(OC(F)(F)F)cc2)cc1OC
- NPR1 antag: -2%

Oc1ccc(-c2nc(C3CC3)nc3c2CN(Cc2cncs2)CC3)cc1
- NPR1 antag: 0%

CN(C)[C@H]1CCN(S(=O)(=O)c2ccsc2C(=O)O)C[C@H]1CCC(=O)O
- NPR1 antag: -6%

C1CC(c2noc(C3CC3)n2)CN1 (centres undefined)
- NPR1 antag: -2%

Fc1ccc(C2Cn3nnc(-c4nc(C5CC5)no4)c3CO2)cc1 (centres undefined)
- NPR1 antag: u

COc1ccc(CC(=O)N2C[C@H](c3nc(-c4cccnc4)no3)[C@@H](C)C2)cc1
- NPR1 antag: -15%

CC(CNC(=O)C1CCC(=O)N(C2CC2)C1)(c1ccccc1)c1ccccc1 (centres undefined)
- NPR1 antag: -1%

Cc1cc(C[C@@H]2COC[C@@H]2NC(=O)CCc2nc(-c3ccco3)no2)on1
- NPR1 antag: -1%

COc1ccc(-c2[nH]ncc2CNC(=O)C2NCCc3[nH]cnc32)cc1 (centres undefined)
- NPR1 antag: 5%

Cc1nn(Cc2nc(-c3ccc4nc[nH]c4c3)no2)c(=O)c2ccccc12
- NPR1 antag: -17%

Cc1nc(NCC2(c3ccccc3)CCOCC2)cc(C2CC(O)C2)n1 (centres undefined)
- NPR1 antag: 1%

CC(C)CCNC(=O)c1cnc2n1CCN(Cc1ccncc1Cl)CC2
- NPR1 antag: 3%[70.6 µM]

COc1ccc(OC)c(S(=O)(=O)N2CC(N(C3CCOCC3)S(C)(=O)=O)C2)c1
- NPR1 antag: 2%

CCn1c(C2CCCN(C(=O)NC(C)C)C2)nn(C)c1=O (centres undefined)
- NPR1 antag: 1%

COc1cccc2c1ccn2CCNC(=O)Cn1nc2c(cc1=O)CCCCC2
- NPR1 antag: -3%

COc1ccc(CCc2nc3nccc(-c4ccccc4)n3n2)cc1OC
- NPR1 antag: -11%

COc1ccc(C2Cn3cnc(C(=O)N4CCC(C(=O)NCc5ccccc5F)CC4)c3CO2)cc1 (centres undefined)
- NPR1 antag: -4%

COc1ccccc1NC(=O)CCn1ccn2nc3c(c2c1=O)CCCC3
- NPR1 antag: 1%

O=C(Cc1cccc(F)c1)N1CCC(Oc2ccccc2-c2nc(C3CC3)no2)C1 (centres undefined)
- NPR1 antag: -5%

COCc1noc([C@@H]2CN(Cc3cccc(F)c3)C[C@H]2COC)n1
- NPR1 antag: 7%

CCC(COC)NC(=O)c1c(C)noc1-c1cc(OC)c(OC)c(OC)c1 (centres undefined)
- NPR1 antag: -3%

Exported tab-delimited: part of the list above.
SMILES	NPR1 antag
COc1ccc(C2Cn3cnc(C(=O)N4CCC(C(=O)NCc5ccccc5F)CC4)c3CO2)cc1 (centres undefined)	-4%
COc1ccccc1NC(=O)CCn1ccn2nc3c(c2c1=O)CCCC3	1%

(listing goes on)
OCC1(CN2CCCC2)CCN(Cc2cnn(-c3ccccc3)c2)CC1
- NPR1 antag: 2%

O[C@@H]1C[C@@H](c2nc(-c3cnccn3)no2)N(Cc2ccc(-c3ccccn3)cc2)C1
- NPR1 antag: -1%[70.6 µM]

O=C(Nc1ccsc1)N[C@H]1C[C@H]2C(=O)NC[C@@H](CCC(=O)N3CCOCC3)N2C1
- NPR1 antag: 6%[70.6 µM]

COc1ccccc1C(=O)Nc1ccc(C(O)[C@H]2COCC(=O)N2)cc1 (some centres undefined)
- NPR1 antag: 0%[70.6 µM]

COCC(=O)N[C@H]1CC[C@]2(C)CC[C@@H]([C@H](C)C(=O)N3CCCCC3)[C@H](O)[C@H]2[C@@H]1C
- NPR1 antag: 4%[70.6 µM]

CC1CCN([C@@H]2[C@H](O)[C@H](CO)O[C@@H]2CNC(=O)N2CCOCC2)CC1
- NPR1 antag: -4%[70.6 µM]

CC(=O)N1CCC(N2C[C@@H]3C[C@H]2C(=O)N(Cc2ccccn2)c2ccccc2O3)CC1
- NPR1 antag: -4%[70.6 µM]

O=C1[C@@H]2C[C@@H](O)CN2C2(CN(Cc3ccccn3)C2)C(=O)N1Cc1ccccc1
- NPR1 antag: 6%[70.6 µM]

Cc1ccc(-c2cc3c(=O)n(CCNC(=O)c4ccccc4F)ccn3n2)c(C)c1
- NPR1 antag: -13%

COC(=O)[C@@H]1Cc2ncn(C)c2CN1S(=O)(=O)c1ccc(C)cc1
- NPR1 antag: 5%[70.6 µM]

COc1cccc(CCC(=O)N2CCC3(CC2)N=C(c2cccc(Br)c2)NO3)c1
- NPR1 antag: -21%

O=C1N[C@@H](Cc2c[nH]c3ccccc23)C(=O)N2CCN(C(=O)c3cccnc3)C[C@@H]12
- NPR1 antag: 2%[70.6 µM]

CC(C)Oc1ccccc1CN1CCC2(CC1)CN(c1ncccn1)CC2CO (centres undefined)
- NPR1 antag: -10%

COc1ccc(NC(=O)CC2CCOCC2)c(C)c1
- NPR1 antag: 0%

Cn1cnc(S(=O)(=O)N2CCCC(Cc3noc(-c4cccnc4)n3)C2)c1 (centres undefined)
- NPR1 antag: -8%

O=C(Cn1ccnc1)N1CCc2c(n(CCOc3ccccc3)n(-c3ccccc3)c2=O)C1
- NPR1 antag: 3%

O=C(Nc1cccc(Cl)c1)C1CCCN1c1nc2ncccc2o1 (centres undefined)
- NPR1 antag: -1%

C#CCNC(=O)C1CN(c2cccc(OC)c2)C(=O)N1 (centres undefined)
- NPR1 antag: 0%[70.6 µM]

O=C(N[C@H](c1cccs1)C1CC(O)C1)C1CCN(C2CCOCC2)CC1 (some centres undefined)
- NPR1 antag: -3%

COc1ccccc1NC(=O)Nc1ccnn1C1CCN(C(=O)CN)CC1
- NPR1 antag: -2%

CCNC(=O)c1cccnc1OC1CCN(C(=O)c2cccc(C)c2)C1 (centres undefined)
- NPR1 antag: -3%

O=C1[C@@H]2C[C@@H](CN2Cc2ccc3c(c2)OCO3)Oc2ccccc2N1Cc1ccccn1
- NPR1 antag: -18%[70.6 µM]

CS(=O)(=O)c1ccc(OCC2(CNCc3ccc(F)c(F)c3)C[C@@H](O)[C@@H](O)C2)cc1 (some centres undefined)
- NPR1 antag: 2%

O=C(CN1CCN(C(=O)c2cc3c(s2)CN(C2CCCC2)C3)CC1)N1CCCC1
- NPR1 antag: -2%

Cn1nc(C(=O)N2C[C@@H](CO)[C@H](c3ccncc3)C2)c2ccccc21
- NPR1 antag: -6%

CCCNC(=O)N[C@@H]1C=C(C(=O)N[C@@H](Cc2ccc(OC)cc2)C(N)=O)C[C@@H](O)[C@@H]1O
- NPR1 antag: 2%[70.6 µM]

O=C(c1nnc(CN2CCN(c3ccccn3)CC2)n1Cc1ccccc1)N1CCC[C@@H]1c1ccc(Br)cc1
- NPR1 antag: -2%

Cc1cn2nc(-c3nc(C4CCCN(C(=O)Cc5ccsc5)C4)no3)cc2c(=O)[nH]1 (centres undefined)
- NPR1 antag: 8%

Cc1cc(C)cc(NC(=O)N2CCC3(CCNC(=O)CC3)CC2)c1
- NPR1 antag: 2%

O=C1NCCCCCN(C(=O)COc2ccccc2)[C@H]2CCC[C@@H]12
- NPR1 antag: 1%

O=C(CCNc1c(-c2ccc(F)cc2)nc2cnccn12)NC1CCCC1
- NPR1 antag: -2%

COc1ccc(C(=O)N2CCC3(CC2)NC(=O)N(Cc2ccc(F)cc2)C3=O)c(C)c1
- NPR1 antag: u

COc1ccccc1CC(=O)N1CCC2(CC1)NC(=O)N(Cc1ccccc1)C2=O
- NPR1 antag: -12%

O=C(c1ccc(Cl)cc1)N1CC(c2nnc(-c3ccncc3)o2)C2(CCOCC2)C1 (centres undefined)
- NPR1 antag: 1%

O=C(NCCc1ccccc1)N1CCCCC1c1nc(CCOCC2CC2)no1 (centres undefined)
- NPR1 antag: 2%

CC(C)CCN1C[C@@H]2C(=O)N(CCCN3CCCC3=O)C(=O)[C@@H]2C1
- NPR1 antag: 3%

Cc1noc(C2CCCCCN2C(=O)Cc2ccccc2)n1 (centres undefined)
- NPR1 antag: 6%

CCn1ncc(N2CCC(NC(=O)Cc3cccs3)CC2)cc1=O
- NPR1 antag: 2%

COCCNC(=O)c1ccc(OC2CCN(C(=O)[C@@H](C)N)CC2)c(Cl)c1
- NPR1 antag: -2%

COc1ccc([C@@H]2CN(c3ncccc3C#N)C[C@H]2NC(C)=O)cc1
- NPR1 antag: 4%

Cc1ccc(-c2cn3c(n2)CO[C@@H](CNS(=O)(=O)c2cccs2)C3)cc1
- NPR1 antag: -23%[70.6 µM]

O=C(c1ccc2cccc(F)c2n1)N1CCOc2ccc(Cl)cc2C1
- NPR1 antag: 1%

CC(C)Cc1nnc(NC(=O)C2CC(=O)N(c3n[nH]c4cccc(F)c34)C2)s1 (centres undefined)
- NPR1 antag: 1%

O=[S+]1([O-])NC2(CCCN(Cc3ccc(OC(F)(F)F)cc3)C2)CNc2ccccc21 (centres undefined)
- NPR1 antag: u

O=C(c1ccccc1OCC1CCCN(CC2=Cc3ccccc3OC2)C1)N1CCCCC1 (centres undefined)
- NPR1 antag: -17%

CN(C)c1ccc(CN2CCOC[C@H]2c2ncc(-c3cccc(Cl)c3)[nH]2)cc1
- NPR1 antag: -30%[70.6 µM]

Screening data deposited in PubChem by National Center for Advancing Translational Sciences (NCATS).
